# Screens as filed in PubChem BioAssay.
# FGF22 binding = shifts melting point of recombinant human FGF22; recombinant FGF22 thermal shift, SYPRO orange fluorescence; percent of sucrose octasulfate shift, DMSO zero; calls only at 9.99 µM; 1.5% of 340,000 active;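 active means melting point raised past a set limit in the mean and every replicate; three in four hits are not shown here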
# Target sequence (Q9HCT0 whole entry, looked up): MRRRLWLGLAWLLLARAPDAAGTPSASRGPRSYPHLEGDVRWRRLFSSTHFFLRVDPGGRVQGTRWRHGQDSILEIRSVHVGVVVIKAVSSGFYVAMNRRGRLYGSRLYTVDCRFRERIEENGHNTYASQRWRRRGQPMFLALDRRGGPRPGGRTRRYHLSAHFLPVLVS
# AF4-AF9 inh = inhibitors of human MLL-AF4/AF9 interaction; P42568; AlphaScreen, biotin-AF4 peptide binding to FLAG-AF9; inhibition, % at 10 µM; 0.47% of 350,000 active; AID 651704;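 active means every replicate reaching a set inhibition limit, whatever the replicate mean, cut at about 25% in these data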;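 further: 0% = plate neutral control median and 100% = total signal loss; the record names both 10 and 1 µM as test concentration; the first replicate is given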
# Target sequence (P42568 whole entry, looked up): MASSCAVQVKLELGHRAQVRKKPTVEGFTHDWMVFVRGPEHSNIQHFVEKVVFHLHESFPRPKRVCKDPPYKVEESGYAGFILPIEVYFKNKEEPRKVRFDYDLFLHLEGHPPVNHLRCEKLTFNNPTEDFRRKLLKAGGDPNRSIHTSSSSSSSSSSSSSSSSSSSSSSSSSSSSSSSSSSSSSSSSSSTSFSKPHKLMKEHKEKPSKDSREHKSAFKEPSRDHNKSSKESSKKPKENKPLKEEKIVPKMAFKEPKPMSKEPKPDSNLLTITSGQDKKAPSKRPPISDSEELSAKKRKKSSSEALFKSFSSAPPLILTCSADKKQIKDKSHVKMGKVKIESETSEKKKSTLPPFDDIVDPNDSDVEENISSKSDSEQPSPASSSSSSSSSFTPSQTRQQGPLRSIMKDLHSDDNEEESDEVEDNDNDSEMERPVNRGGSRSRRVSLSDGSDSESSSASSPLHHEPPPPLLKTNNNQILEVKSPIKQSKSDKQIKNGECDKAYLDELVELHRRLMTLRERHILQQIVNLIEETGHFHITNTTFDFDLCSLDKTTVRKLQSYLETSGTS
# Ecoli rRNA inh = selective bacterial rRNA inhibition in E. coli; E. coli WT GFP vs humanized-ribosome RFP mutants, fluorescence, 24 h; hits give low values; DMSO median 0, no signal -100; GFP signal change (wild-type ribosome), % (test concentration not listed); 1.6% of 350,000 active; AID 720706;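 active means significant combined selectivity score with lowered wild-type GFP, culture density cut under 30%, mutant RFP and density less affected; inactive means any of these conditions unmet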; further: one replicate is shown; some compounds called inactive have numbers as strong as hits
# Ecoli rRNA inh OD600 = recorded beside Ecoli rRNA inh, whose call it bears; OD600 change, %; measured here: OD600 growth;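 optical density of the mix in the first replicate; 0 = DMSO median and -100 = no signal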
# Ecoli rRNA inh RFP = further read-out of Ecoli rRNA inh, marked with its call; RFP signal change, %; measured here: RFP humanized mutant strains;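 first replicate; 0 = DMSO median and -100 = no signal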
# An asterisk follows results filed as active; i = inactive; & = joins results of further samples. These rows are one share of the data; rates above refer to the full screens.
SMILES,FGF22 binding,AF4-AF9 inh,Ecoli rRNA inh,Ecoli rRNA inh OD600,Ecoli rRNA inh RFP
NC(=O)c1cccc(-c2csc(C(O)c3cccc(Cl)c3)n2)c1 (configuration not stated),i,-1.4,-1,-16,-4.0
CCCNC(=O)N(C)C[C@@H]1Oc2cc(C#CCOC)ccc2S(=O)(=O)N([C@H](C)CO)C[C@H]1C,i,-1.5,1,5,0.3
CCOC(=O)c1ccc(-c2ccc3ncnc(NCc4csc(C)n4)c3c2)o1,i,1.7,4,11,6.7
CCCNC(=O)N(C)C[C@H]1Oc2ncc(-c3ccc(F)cc3)cc2C(=O)N([C@@H](C)CO)C[C@H]1C,i,-1.7,2,4,-0.3
CC(C)NC(=O)N(C)C[C@H]1Oc2ccc(NS(=O)(=O)c3ccccc3)cc2CC(=O)N([C@@H](C)CO)C[C@H]1C,i,0.1,0,5,-1.3
C[C@H](CO)N1C[C@H](C)[C@H](CN(C)C(=O)NC2CCCCC2)Oc2ccc(NC(=O)Cn3cnnn3)cc2C1=O,i,-3.9,2,14,0.0
CO[C@@H]1CN(C)C(=O)c2ccc(NC(=O)Nc3ccc4c(c3)OCO4)cc2OC[C@@H](C)NC[C@@H]1C,i,5.1,4,-1,0.6
C[C@H](CO)N1C[C@H](C)[C@H](CN(C)Cc2ccc(C(=O)Nc3ccccc3N)cc2)Oc2c(NS(=O)(=O)c3cn(C)cn3)cccc2C1=O,i,6.9,3,13,-1.7
CO[C@H]1CN(C)C(=O)c2cc(NC(=O)NC(C)C)ccc2OC[C@H](C)N(C(=O)NC(C)C)C[C@H]1C,i,-1.4,1,3,-1.9
Cc1noc(C)c1S(=O)(=O)Nc1ccc2c(c1)CC(=O)N([C@@H](C)CO)C[C@H](C)[C@@H](CN(C)C(=O)NC1CCCCC1)O2,i,-2.0,4,0,0.0
Cc1ccc(S(=O)(=O)N2C[C@H](O)COC[C@H]3O[C@H](CC(=O)N[C@@H]4CCN(Cc5ccccc5)C4)CC[C@@H]32)cc1,i,0.8,4,2,0.0
COCCCNC(=O)C[C@H]1C[C@@]2(C(=O)OC)C(=C[C@H](COCc3ccccc3)O[C@@H]2C)N(Cc2ccc3c(c2)OCO3)C1=O,i,-0.4,0,-2,8.6
O=C(C[C@H]1C[C@H]2c3cc(NC(=O)c4ccc5c(c4)OCO5)ccc3O[C@H]2[C@H](CO)O1)NCC1CC1,i,-1.4,-2,5,2.1
C[C@@H]1CN([C@H](C)CO)C(=O)c2cc(C3=CCCCC3)cnc2O[C@H]1CN(C)Cc1cccnc1,i,-1.2,1,-1,-2.4
COCC(=O)Nc1ccc2c(c1)[C@H]1C[C@@H](CC(=O)NCc3ccncc3)O[C@H](CO)[C@H]1O2,i,-4.3,1,-3,-3.0
CCC(=O)N1CC2(CN(Cc3ccc(OC)cc3)C2)c2c(n(C)c3cc(OC)ccc23)[C@H]1CO,i,1.5,-3,-3,3.0
Cc1noc(C)c1NC(=O)N(C)C[C@@H]1Oc2ccc(NC(=O)Nc3ccc(F)cc3)cc2C(=O)N([C@@H](C)CO)C[C@@H]1C,i,-16,5,6,-1.4
CCC(=O)NC[C@H]1[C@H](c2ccc(-c3cccc(F)c3)cc2)[C@@H](CO)N1C(=O)CC,i,0.7,-6,-2,1.5
CCC(=O)Nc1ccc2c(c1)C(=O)N(C)C[C@@H](OC)[C@H](C)CN(CC1CC1)[C@@H](C)CO2,i,0.9,4,-1,-1.1
C[C@@H]1CN([C@H](C)CO)C(=O)CCCn2nncc2CO[C@H]1CN(C)Cc1ccc2c(c1)OCCN2C,i,0.6,-1,1,0.5

# Looked up above.
# CCC(=O)NC[C@H]1[C@H](c2ccc(-c3cccc(F)c3)cc2)[C@@H](CO)N1C(=O)CC | AF4-AF9 inh = 0.7
# Cc1noc(C)c1NC(=O)N(C)C[C@@H]1Oc2ccc(NC(=O)Nc3ccc(F)cc3)cc2C(=O)N([C@@H](C)CO)C[C@@H]1C | Ecoli rRNA inh OD600 = 6

# New compounds follow.
SMILES,FGF22 binding,AF4-AF9 inh,Ecoli rRNA inh,Ecoli rRNA inh OD600,Ecoli rRNA inh RFP
O=C(N[C@H]1CC[C@@H](CC(=O)N2CCN(c3ccccc3)CC2)O[C@H]1CO)c1ccncc1,i,-2.5,0,4,0.5
N#C[C@@H]1[C@@H](c2ccc(C3=CCCCC3)cc2)[C@H](CO)N1C(=O)NC1CCCCC1,i,1.1,0,-20,22
CN(C)CCCNC(=O)C[C@@H]1CC[C@H](NS(=O)(=O)c2ccccc2)[C@@H](CO)O1,i,-0.6,1,3,0.6
COC(=O)[C@@]12C[C@@H](CC(=O)NCCC(C)C)C(=O)N(CCc3ccc(OC)c(OC)c3)C1=CCC(C)(C)C2,i,1.8,6,2,2.3
O=C(C[C@H]1C[C@H]2c3cc(NC(=O)C4CCOCC4)ccc3O[C@H]2[C@@H](CO)O1)NCc1cc(F)ccc1F,i,4.5,2,9,-2.7
CNC[C@@H]1Oc2ccc(NC(=O)NC(C)C)cc2CC(=O)N([C@@H](C)CO)C[C@@H]1C,i,-1.7,-1,-3,-3.0
C[C@@H]1CN([C@@H](C)CO)C(=O)c2cc(NC(=O)Nc3ccccc3)ccc2O[C@@H]1CN(C)S(=O)(=O)c1ccc(F)cc1,i,-8.2,2,-9,-4.3
COc1ccccc1-c1cnc2c(c1)C(=O)N([C@@H](C)CO)C[C@H](C)[C@@H](CN(C)Cc1ccncc1)O2,i,2.3,1,1,1.9
Cc1noc(C)c1S(=O)(=O)N(C)C[C@@H]1OCc2cnnn2CCCC(=O)N([C@H](C)CO)C[C@@H]1C,i,-5.8&0.5,4&0,0&-2,-9.4&-1.8
Cn1cnc(CCNC(=O)C[C@H]2CC[C@@H]3[C@H](COC[C@H](O)CN3C(=O)C3CCCC3)O2)c1,i,-1.1&-1.6,0&8,0&9,3.4&2.3
Cc1ccc(S(=O)(=O)Nc2ccc3c(c2)C(=O)N([C@@H](C)CO)C[C@H](C)[C@H](CN(C)S(=O)(=O)c2ccc(C)cc2)OCCCC[C@H](C)O3)cc1,i,-6.9,0,-2,3.9
COc1ccc2c3c(n(C)c2c1)[C@H](CO)N(C(=O)Nc1c(C)noc1C)CC31CN(CC2CC2)C1,i,1.6,4,7,1.6
Cc1onc(-c2ccccc2)c1-c1nnc(COC(=O)c2ccc(N(C)C)cc2)o1,i,3.6,-19,-24,4.5
Cc1ccc(S(=O)(=O)N2C[C@H]3N(C(=O)OC(C)C)N(C(=O)OC(C)C)C[C@H](OC(=O)NC4CCCC4)[C@@]3(O)C2)cc1,i,2.0,-3,-18,6.9
CCCNC(=O)C1(C)CCCN(C(=O)c2cccc(C(F)(F)F)c2)C1 (configuration not stated),i,-2.4,16,23,1.9
COc1ccc(-c2csc(C(C)(O)c3ccc(F)c(F)c3)n2)cc1OC (configuration not stated),i,0.0,-19,-26,2.9
Cc1c(C(=O)NCc2ccc(F)cc2)sc(=O)n1Cc1ccccc1,i,-3.8,-3,-9,-7.7
Cc1noc(C)c1NC(=O)N[C@@H]1CC[C@H](CC(=O)Nc2ccc(-c3ccccc3)cc2)O[C@H]1CO,i,-24,-7,-11,1.5
COc1cccc(C(=O)Nc2ccc3c(c2)C(=O)N(C)[C@@H]2CC[C@@H](CC(=O)NCC4CC4)O[C@@H]2CO3)c1,i,-2.2,0,-1,-1.4
O=C([C@@H]1[C@@H](CO)[C@@H]2Cn3c(cccc3=O)[C@@H]2N1Cc1ccccc1Cl)N1CCCCC1,i,-2.2,0,3,1.0
O=C(C[C@H]1CC[C@@H]2[C@H](COC[C@@H](O)CN2C(=O)c2ccccc2F)O1)NCc1ccc(-c2ccccc2)cc1,i,0.4,-3,-6,13
C[C@H]1CN([C@@H](C)CO)C(=O)c2cc(NC(=O)CCCN(C)C)ccc2O[C@H]1CN(C)Cc1ccc2c(c1)OCO2,i,-1.7,0,4,-0.6
COCC(=O)Nc1ccc2c(c1)[C@@H]1C[C@@H](CC(=O)NCc3ccc4c(c3)OCO4)O[C@@H](CO)[C@@H]1O2,i,0.7,1,1,-1.0
Cc1ccc(S(=O)(=O)N(C)C[C@H]2OCCCC[C@@H](C)Oc3ccc(NC(=O)CCCN(C)C)cc3C(=O)N([C@@H](C)CO)C[C@@H]2C)cc1,i,7.1,1,1,0.1
O=C(C[C@@H]1C=C[C@@H](NC(=O)c2ccncc2)[C@H](CO)O1)NCCc1ccncc1,i,1.8,-2,1,-1.3
CCCNC(=O)C[C@@H]1CC[C@@H]2[C@H](COC[C@H](O)CN2Cc2cccc(F)c2)O1,i,0.1,-2,-5,-4.3
CCCC(=O)Nc1ccc2c(c1)C(=O)N(C)[C@@H]1CC[C@H](CC(=O)NC3CCCC3)O[C@@H]1CO2,i,0.0,-1,3,-2.0
CN1C(=O)c2cc(NC(=O)Cc3cccs3)ccc2OC[C@@H]2O[C@@H](CC(=O)N[C@H]3CCN(Cc4ccccc4)C3)CC[C@@H]21,i,4.6,4,7,-1.3
Cc1ccc(S(=O)(=O)N(C)C[C@H]2Oc3ccc(NC(=O)CCCCCC(=O)Nc4ccccc4N)cc3CC(=O)N([C@@H](C)CO)C[C@H]2C)cc1,i,1.6,-1,-3,2.6
CCC(=O)Nc1ccc2c(c1)C(=O)N(C)C[C@H](OC)[C@@H](C)CN(C(=O)Cc1ccccn1)[C@@H](C)CO2,i,1.0,0,-1,-1.0
CC(C)NC(=O)N(C)C[C@H]1Oc2ccc(NC(=O)CCC(F)(F)F)cc2CC(=O)N([C@H](C)CO)C[C@H]1C,i,-3.5,7,11,0.1
C[C@H]1[C@H](c2ccccc2)Oc2cc(Br)ccc2S(=O)(=O)N1Cc1ccc(Cl)cc1,i,-4.0,-1,3,-0.5
COc1ccccc1-c1cn(CC[C@@H]2CC[C@@H](NC(=O)c3ccccc3F)[C@@H](CO)O2)nn1,i,-1.9,-6,-7,0.0
C[C@@H]1CN([C@@H](C)CO)C(=O)Cc2cc(NS(=O)(=O)c3ccc(Cl)cc3)ccc2O[C@@H]1CN(C)S(=O)(=O)c1ccccc1,i,1.7,-2,-8,-0.3
CCCCCCN(C(=O)CCCCCN1C(=O)NC(c2ccc([N+](=O)[O-])cc2)C(C(=O)OCc2ccccc2)=C1C)C(C(=O)NCCCC)C1CCCCC1 (configuration not stated),i,0.5,0,-3,-9.2
C[C@H](CO)N1C[C@H](C)[C@@H](CN(C)CC2CCCCC2)Oc2ccc(NC(=O)Nc3ccccc3)cc2C1=O,i,6.7,3,9,-0.7
COc1ccc(NC(=O)N(C)C[C@H]2Oc3c(NC(=O)c4cnccn4)cccc3C(=O)N([C@@H](C)CO)C[C@H]2C)cc1,i,-3.2,6,5,-0.2
COc1ccc2c3c([nH]c2c1)[C@H](CO)N(S(=O)(=O)c1cn(C)cn1)CC31CCN(Cc2ccccc2F)CC1,i,8.6,-2,-11,-0.5
CCC(=O)N(C)C[C@H]1Oc2cc(-c3ccccc3OC)ccc2S(=O)(=O)N([C@@H](C)CO)C[C@@H]1C,i,3.6,-6,-6,1.6
CC(=O)Nc1cnc(/C=C\CCCO)cn1,i,1.5,0,10,-0.8
Cc1cccc(-n2cnc3cc(C(=O)NCC4CCCO4)ccc32)c1 (configuration not stated),i,-1.3,-10,-15,-4.3
O=C(C[C@@H]1C=C[C@H](NC(=O)c2ccccc2)[C@@H](CO)O1)NCc1ccncn1,i,0.1,4,1,1.7
COc1ccc(-c2ccc3c(c2)C2CC3CCN2C(=O)C(C)(C)C)cc1 (configuration not stated),i,-0.6,-30*,-19*,-7.0*
Cc1ncc(COCc2ccccc2)c(CO)c1OCc1ccccc1,i,-4.1,-19,-41,-3.0
C[C@H](CO)N1C[C@H](C)[C@@H](CN(C)C(=O)C2CCCCC2)OCCCC[C@H](C)Oc2ccc(NS(=O)(=O)c3cn(C)cn3)cc2C1=O,i,0.0,1,3,-1.9
N#Cc1ccc(-c2nc3c(Cl)cc(C(F)(F)F)cn3c2Cc2ccccc2C(F)(F)F)cc1,i,-0.6,14,-6,-0.1
CC(C)N1C/C(=C/c2cccnc2)C(=O)/C(=C/c2cccnc2)C1,i,-4.9,7,14,-2.5
O=C(Cc1ccncc1)NCC[C@H]1CC[C@@H](NC(=O)C2CCOCC2)[C@H](CO)O1,i,-0.1,-1,10,-1.1

# A run of entries from the list above, for reference:
SMILES,FGF22 binding,AF4-AF9 inh,Ecoli rRNA inh,Ecoli rRNA inh OD600,Ecoli rRNA inh RFP
Cc1cccc(-n2cnc3cc(C(=O)NCC4CCCO4)ccc32)c1 (configuration not stated),i,-1.3,-10,-15,-4.3
O=C(C[C@@H]1C=C[C@H](NC(=O)c2ccccc2)[C@@H](CO)O1)NCc1ccncn1,i,0.1,4,1,1.7
COc1ccc(-c2ccc3c(c2)C2CC3CCN2C(=O)C(C)(C)C)cc1 (configuration not stated),i,-0.6,-30*,-19*,-7.0*
Cc1ncc(COCc2ccccc2)c(CO)c1OCc1ccccc1,i,-4.1,-19,-41,-3.0
C[C@H](CO)N1C[C@H](C)[C@@H](CN(C)C(=O)C2CCCCC2)OCCCC[C@H](C)Oc2ccc(NS(=O)(=O)c3cn(C)cn3)cc2C1=O,i,0.0,1,3,-1.9
